T cruzi repl: T. cruzi replication inhibition | T. cruzi beta-gal in NIH3T3, luminescence, 90 h | inhibition, % (test concentration not listed) | 300,000 compounds, 1.4% hits;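 active = mean inhibition across valid replicates above about 55%, limit read from the data; inconclusive = mean below that limit but half or more replicates reach it; inactive = mean below it, under half of replicates reach it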;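 also: signal also drops with host cell toxicity which is not excluded here; 0% = plate median of DMSO wells and 100% = zero luminescence signal; higher percent means less beta-gal luminescence so fewer parasites; stock transfer was 50 nL into about 50 µL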
E coli growth: blocks Escherichia coli growth. OD600, 23 h; active compounds read low. OD600 absorbance (concentration not given with the values). 330,000 compounds, 0.21% hits;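 active = OD600 absorbance below the run mean of sample wells minus 3.6 SD, in any replicate, cut at about 0.56 in these data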;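 also: stock transfer was 300 nL into about 60 µL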
FGF22 binding: shifts melting point of recombinant human FGF22. Q9HCT0. recombinant FGF22 thermal shift, SYPRO orange fluorescence; percent of sucrose octasulfate shift, DMSO zero. calls only at 9.99 µM. 340,000 compounds, 1.5% hits. AID 651658;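 active = melting point raised past a set limit in the mean and every replicate; inconclusive = no clear call; three in four hits are not shown here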
Target sequence (Q9HCT0 whole entry, looked up): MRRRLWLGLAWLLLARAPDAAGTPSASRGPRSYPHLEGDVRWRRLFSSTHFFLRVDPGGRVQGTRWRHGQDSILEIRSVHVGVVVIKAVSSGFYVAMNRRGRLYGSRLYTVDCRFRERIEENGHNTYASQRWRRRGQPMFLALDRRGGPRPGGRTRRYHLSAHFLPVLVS
Bfl-1 A1 inh: inhibitors of the anti-apoptotic protein A1, read as caspase activation; caspase activation, % (no concentration beside the values); 330,000 compounds, 0.066% hits; MEF A1-2A-BIM cells, Caspase-Glo 3/7 luminescence, 3 h; percent of clofoctol response, vehicle zero;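 active = over half of replicate activation scores above 10%, or exactly half above 10 with the replicate mean above 10; inconclusive = replicate mean below 10 yet half the replicates above 10; inactive = over half of replicates below 10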;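 also: wells of about 30 µL received 50 nL stock; many hits fall short of the cut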
Ecoli rRNA inh: inhibitors of bacterial rRNA selective over humanized ribosomes; E. coli WT GFP vs humanized-ribosome RFP mutants, fluorescence, 24 h; active compounds read low; DMSO median 0, no signal -100; GFP signal change (wild-type ribosome), % (concentration not given with the values); 350,000 compounds, 1.6% hits;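 active = significant combined selectivity score with lowered wild-type GFP, culture density cut under 30%, mutant RFP and density less affected; inactive = any of these conditions unmet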; also: one replicate is shown; some compounds called inactive have numbers as strong as hits
UCH37 inh: blocks the human deubiquitinase UCH37 | purified proteasome/UCH37, Ub-AMC cleavage fluorescence | inhibition, % (no concentration beside the values) | AID 588478 | 330,000 compounds, 0.33% hits;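 active = mean of two replicates above 20%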;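 also: 0% = compound-free wells with enzyme and 100% = wells lacking proteasome; stock transfer was 100 nL into about 20 µL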
Target sequence (Q9Y5K5 whole entry, looked up): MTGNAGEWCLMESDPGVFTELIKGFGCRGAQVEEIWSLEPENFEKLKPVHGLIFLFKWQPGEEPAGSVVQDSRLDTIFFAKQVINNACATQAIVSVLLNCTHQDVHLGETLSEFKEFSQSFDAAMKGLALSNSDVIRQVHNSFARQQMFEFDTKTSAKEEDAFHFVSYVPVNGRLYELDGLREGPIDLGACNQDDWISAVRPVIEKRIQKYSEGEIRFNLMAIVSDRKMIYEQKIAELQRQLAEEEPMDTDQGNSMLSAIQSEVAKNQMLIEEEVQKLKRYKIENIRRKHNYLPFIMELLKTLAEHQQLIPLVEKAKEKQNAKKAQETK
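Reagent: Ub-AMC substrate; assay system: Proteasome-associated human UCH37 deubiquitinase; controls: no-proteasome and no-compound wells; read-out: % inhibition of Ub-AMC cleavage fluorescence; timing: 30 min preincubation with enzyme, 25 min cleavage at room temperature; signal: AMC fluorescence from Ub-AMC cleavage, excitation 355 nm, emission 460 nm; buffer or medium: Tris-HCl pH 7.4 plus ovalbumin, ATP-MgCl2, DTT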
Beta apoptosis: beta cell apoptosis inhibition. INS-1E cytokine-induced death, ATP luminescence, 48 h; percent of positive-control rescue, neutral wells zero. protection from apoptosis, % (no concentration beside the values). 300,000 compounds, 0.8% hits. AID 435005;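 active = all replicates at 75% or more, or half of them and the mean; inconclusive = half reach 75% but not the mean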;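 also: 0% = cytokine-treated negative control wells and 100% = positive control rescue; higher means more ATP so stronger rescue from cytokine killing; wells of about 40 µL received 100 nL stock; the first replicate is given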
MLL AF4-AF9 inh: inhibitors of human MLL-AF4/AF9 interaction | inhibition, % at 10 µM | AlphaScreen, biotin-AF4 peptide binding to FLAG-AF9 | P42568 | 350,000 compounds, 0.47% hits;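 active = every replicate reaching a set inhibition limit, whatever the replicate mean, cut at about 25% in these data; inconclusive = mean inhibition reaches that limit but some replicates miss it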;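 also: 0% = plate neutral control median and 100% = total signal loss; the record names both 10 and 1 µM as test concentration; the first replicate is given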
Target sequence (P42568 whole entry, looked up): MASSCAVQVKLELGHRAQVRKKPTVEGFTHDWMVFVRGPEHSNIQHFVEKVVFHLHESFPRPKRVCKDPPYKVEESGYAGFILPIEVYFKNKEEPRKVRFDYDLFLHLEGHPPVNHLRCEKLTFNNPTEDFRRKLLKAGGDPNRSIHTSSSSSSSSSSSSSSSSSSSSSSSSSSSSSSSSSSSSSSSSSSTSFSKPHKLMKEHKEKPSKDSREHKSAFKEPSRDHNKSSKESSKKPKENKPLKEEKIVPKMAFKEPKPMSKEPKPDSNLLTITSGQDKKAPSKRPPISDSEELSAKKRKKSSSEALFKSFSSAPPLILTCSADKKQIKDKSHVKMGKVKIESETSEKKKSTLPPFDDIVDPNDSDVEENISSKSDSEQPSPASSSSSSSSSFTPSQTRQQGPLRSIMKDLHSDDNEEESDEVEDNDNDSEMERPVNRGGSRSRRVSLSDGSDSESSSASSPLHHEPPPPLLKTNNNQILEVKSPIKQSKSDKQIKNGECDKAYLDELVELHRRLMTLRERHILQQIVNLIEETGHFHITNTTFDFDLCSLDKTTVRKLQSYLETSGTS
Ecoli rRNA inh OD600: recorded beside Ecoli rRNA inh, whose call it bears; OD600 change, %; measured here: OD600 growth;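 optical density of the mix in the first replicate; 0 = DMSO median and -100 = no signal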
Ecoli rRNA inh RFP: recorded beside Ecoli rRNA inh, whose call it bears; RFP signal change, %; measured here: RFP humanized mutant strains;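 first replicate; 0 = DMSO median and -100 = no signal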
An asterisk follows results filed as active; i = inactive; ? = inconclusive; · = not tested or not shown; & = joins results of further samples; ! = not active in a repeat.

SMILES	T cruzi repl	E coli growth	FGF22 binding	Bfl-1 A1 inh	Ecoli rRNA inh	Ecoli rRNA inh OD600	Ecoli rRNA inh RFP	UCH37 inh	Beta apoptosis	MLL AF4-AF9 inh
CCN(CC(O)c1cccc(O)c1)C(=O)C12CC3CC(CC(C3)C1)C2 (centres undefined)	2	0.66	i	-0.9	-12	-62	9.2	2.5	1	8.1
Cc1ccc(C2(C)NC(=O)N(CC(=O)Nc3ccc(Cl)c(S(=O)(=O)N4CCCCC4)c3)C2=O)cc1 (centres undefined)	6	0.69	i	0.1	-18	-26	1.1	5.9	-9	0.3
O=C(O)c1cnn(-c2ccccc2)c1-n1cccc1	0	0.7	i	0.1	3	0	0.2	2.3	-2	8.3
Cc1cc(C)c2c(CN3CCC(C)CC3)cc(=O)oc2c1	2	0.61	i	-0.5	5	2	3.4	0.6	-7	0.6
CSc1ccccc1NC(=O)CN1CCN(S(=O)(=O)c2ccccc2[N+](=O)[O-])CC1	·	0.66	i	1.5	-21	-14	-0.5	-2.2	-20	5.0
CCOCCCn1c(SCC(=O)NC2CCCC2)nc2ccccc2c1=O	6	0.62	i	0.3	3	3	1.5	0.8	-2	-9.0
CC(O)CNc1cc(N)c([N+](=O)[O-])cc1[N+](=O)[O-] (centres undefined)	7	0.61	·	0.7	·	·	·	14	1	·
Cc1c(O)ccc2c(CC(=O)N[C@@H](Cc3ccccc3)C(=O)O)cc(=O)oc12	-12	0.66	i	-0.2	6	11	-1.1	i	2	1.0
CC(=O)Nc1ccc(OS(=O)(=O)c2ccc([N+](=O)[O-])cc2)cc1	71*	0.67	i	-0.8	-2	-6	-1.2	2.7	-5	0.8
N#Cc1ccc(/C=C/C(=O)c2cccnc2)cc1	-17	0.61	i	-0.4	0	2	1.0	2.0	8	-4.1
CN(C)CCOC(=O)C1(c2ccccc2)CCOCC1	-11&-6	0.7&0.75	·	0.5&0.4	·	·	·	20*!	-2&-2	·
COc1cc(/C=C2/SC(=O)NC2=O)ccc1Oc1ccc([N+](=O)[O-])cc1[N+](=O)[O-]	9	0.7	i	-2.1	-1	-9	2.6	8.0	16	4.1

Structures listed so far that bear a hit mark in UCH37 inh:
canonical_smiles | E coli growth | FGF22 binding | Ecoli rRNA inh | Ecoli rRNA inh OD600 | Ecoli rRNA inh RFP | UCH37 inh | MLL AF4-AF9 inh
CN(C)CCOC(=O)C1(c2ccccc2)CCOCC1 | 0.7&0.75 | · | · | · | · | 20*! | ·

Later entries:
SMILES	T cruzi repl	E coli growth	FGF22 binding	Bfl-1 A1 inh	Ecoli rRNA inh	Ecoli rRNA inh OD600	Ecoli rRNA inh RFP	UCH37 inh	Beta apoptosis	MLL AF4-AF9 inh
COc1ccc(S(=O)(=O)N2CCOCC2)cc1C(=O)NCC(c1ccccc1)c1ccccc1	·	0.71	i	·	5	16	2.9	-0.5	·	-0.4
Cn1c2ccccc2c(=O)c2ccc(C#CC3(N)CCCCC3)cc21	21	0.76	i	-0.5	-14	-36	8.6	2.8	6	-8.1
Cc1c(Cl)cccc1NC(=O)c1cc(-c2ccco2)on1	-7	0.65	i	-0.2	5	10	-1.0	1.3	-4	-3.2
COc1ccc(Nc2nnc(SCC(=O)/C=C3/N(C)c4ccccc4C3(C)C)s2)cc1	13	0.71	·	-0.5	·	·	·	4.3	62	·
Cn1c(CO)cnc1SCc1c(Cl)cccc1Cl	-9	0.69	·	0.0	·	·	·	4.0	-4	·
CC1(C(=O)NCc2ccccc2)Oc2ccccc2NC1=O (centres undefined)	2	0.7	·	-0.1	·	·	·	-2.4	1	·
O=C1[C@H](Cc2ccccc2)NCCCC[C@@H](c2ccco2)N1Cc1ccccc1	·	·	i	·	-3	-9	-3.9	2.7	·	1.9
O=C(O)/C=C\C(=O)Nc1ccc(F)c(F)c1F	4	0.67	i	0.1	·	·	·	1.4	-2	-2.6
CS(=O)(=O)N1CCC(C(=O)Nc2cccc(Cl)c2Cl)CC1	-9	·	i	-0.9	-9	-12	-6.3	·	9	-25
CN(C)S(=O)(=O)c1ccc2c(c1)nc(CCC(=O)NCc1ccc(Cl)cc1)n2C	0	0.64	i	0.2	-5	-4	0.8	5.1	-3	0.2
Cn1nc(C(F)(F)F)c(-c2ccc(Br)cc2)c1NC(=O)c1nccnc1C(=O)O	-27	0.68	i	-0.1	-6	-3	-1.0	5.9	4	-1.2
CC1CCc2c(sc3ncn(CCO)c(=O)c23)C1 (centres undefined)	-12	0.71	·	-1.0	5	-5	-0.3	5.2	2	-0.8
CCCn1nnnc1NC(=O)c1cc(Cl)ccc1Cl	-16	0.66	i	-1.9	-29	-45	-5.0	0.6	-4	7.7
CCOc1ccc(OCCC(=O)Nc2ccc3c(c2)OCO3)cc1	·	0.64	i	-0.7	-8	-3	-3.2	5.0	2	0.5
CC(C)(C)C1=NN=C2c3ccccc3C(=O)C21 (centres undefined)	2	0.65	i	-0.4	0	0	-2.0	5.8	-7	1.2
COc1ccc(-n2c(Cn3nnc4ccccc43)nnc2SCC(=O)O)cc1	-1	0.66	·	0.4	·	·	·	-0.4	1	·
COc1ccc(S(=O)(=O)N(C)c2ccc(C(=O)NCc3ccccn3)cc2)cc1	8	0.7	i	-0.4	-5	-19	1.7	0.6	1	-0.7
COC(=O)c1c(C)[nH]c(C)c1-c1ccc([N+](=O)[O-])cc1	19	0.63	i	0.6	-26	-40	-7.6	5.5	2	14
CCn1nnnc1SCC(=O)N1CCCCC1	5	0.69	i	-0.9	7	3	-1.7	-2.0	-7	-3.9
NC(=O)c1ccc[n+](CC(=O)c2ccccc2)c1	-11	0.67	i	0.9	6	-5	1.7	2.4	-2	-5.6
Cc1c(C(=O)Nc2nc(-c3ccccn3)cs2)oc2ccccc12	·	0.69	·	-1.2	·	·	·	-8.1	84*	·
NC(=O)C1CCN(C(=O)COc2cccc3ccccc23)CC1	-6	0.7	i	-0.2	-12	-13	5.7	-0.2	-5	-5.1
CC(C)c1nnc(N2C(=O)c3oc4ccccc4c(=O)c3C2c2ccco2)s1 (centres undefined)	-34	0.78	·	-0.2	·	·	·	4.5	1	·
CC(C)Oc1ccc(S(=O)(=O)N2CCOCC2)cc1NC(=O)C1CSC2(C)CCC(=O)N12 (centres undefined)	27	0.63	i	0.4	7	-3	-0.4	5.0	-3	1.2

Complete entries as entered above.
NC(=O)c1ccc[n+](CC(=O)c2ccccc2)c1 as listed: T cruzi repl: -11; E coli growth: 0.67; FGF22 binding: i; Bfl-1 A1 inh: 0.9; Ecoli rRNA inh: 6; Ecoli rRNA inh OD600: -5; Ecoli rRNA inh RFP: 1.7; UCH37 inh: 2.4; Beta apoptosis: -2; MLL AF4-AF9 inh: -5.6
CCCn1nnnc1NC(=O)c1cc(Cl)ccc1Cl as listed: T cruzi repl: -16; E coli growth: 0.66; FGF22 binding: i; Bfl-1 A1 inh: -1.9; Ecoli rRNA inh: -29; Ecoli rRNA inh OD600: -45; Ecoli rRNA inh RFP: -5.0; UCH37 inh: 0.6; Beta apoptosis: -4; MLL AF4-AF9 inh: 7.7

(next part)
SMILES	T cruzi repl	E coli growth	FGF22 binding	Bfl-1 A1 inh	Ecoli rRNA inh	Ecoli rRNA inh OD600	Ecoli rRNA inh RFP	UCH37 inh	Beta apoptosis	MLL AF4-AF9 inh
Cc1ccc(CNc2nc(-c3cccnc3)nc3ccccc23)cc1	?	0.64	i	0.2	-60	-77	-17	1.9	23	-1.3
Cc1ccc(C(CC(=O)O)C2CCOC(C)(C)C2)cc1 (centres undefined)	-2	0.71	i	-1.0	12	17	-1.0	-0.7	·	-4.8
Cc1nc(N)nc(-c2ccccc2O)n1	-20	0.69	·	0.0	·	·	·	-1.4	-5	·
Clc1ccc(OCCn2ccnc2)cc1Cl	59*	0.61	i	0.4	-8	-33	-5.1	3.8	-5	1.3
CCOCCOC(=O)c1ccc(NC(=O)C2COc3ccccc3O2)cc1 (centres undefined)	-3	0.7	i	-0.8	-16	-23	-7.7	2.5	-5	-1.8
Cc1cccc(-n2ncc(C(=O)NC3CCCC3)c2C2CCN(C(=O)OC(C)(C)C)CC2)c1	24	0.66	i	2.0	12	-6	0.6	-0.3	-2	-1.7
O=C(COC(=O)CN1C(=O)c2cccc([N+](=O)[O-])c2C1=O)NC1CCS(=O)(=O)C1 (centres undefined)	-13	0.69	i	1.0	10	14	-3.3	0.1	8	-3.1
COC(=O)c1nnn(-c2cc(Cl)cc(Cl)c2)c1C(=O)OC	0	0.66	i	0.3	10	2	2.7	1.1	·	-0.3
Cc1ccc(CNC(=O)C2CCC(=O)N(Cc3ccc(Cl)cc3)C2)cc1F (centres undefined)	-11	0.68	i	-0.1	-32	-35	-7.5	1.6	-11	-0.6
CC(C)(C)c1ccc(OCCCCCCN2CCNCC2)cc1	7	0.6	i	0.2	-22	-37	-3.0	2.6	11	16
CC(=O)c1ccc(S(=O)(=O)NC2CC(=O)N(c3ccc(C)cc3)C2)cc1 (centres undefined)	-5	0.69	i	0.1	4	9	-2.8	2.0	·	-20
COc1ccc(S(=O)(=O)N2CCCC2CNC(=O)C(=O)NCc2ccc3c(c2)OCO3)cc1 (centres undefined)	8	0.63	i	0.0	-5	-5	1.2	5.0	-3	-0.4
O=C(NCc1ccc(F)cc1)c1ccc2c(c1)S(=O)(=O)c1ccccc1C2=O	-1	0.68	·	-0.2	·	·	·	2.6	3	·
COc1ccccc1C(=O)OCc1ccc2sc(C)nc2c1	-6	0.71	·	-4.3	-28	-36	-3.6	0.5	-5	-0.4
CN(C)S(=O)(=O)c1ccc(N2CCCC2)c(C(=O)Nc2nc3ccccc3s2)c1	7	0.69	i	0.0	6	4	3.1	-9.5	-26	4.1
COc1ccc(OCCCC(=O)Nc2ccc3c(c2)OCCO3)cc1	16	0.65	·	-0.5	·	·	·	3.4	4	·
CCCOc1ccc(C(=O)NCCO)cc1	-4	0.75	·	-0.3	·	·	·	-0.1	-2	·
O=C1c2cccc3c([N+](=O)[O-])ccc(c23)C(=O)N1CCc1ccccn1	29	0.7	i	-0.3	14	1	1.6	-1.1	-5	-1.7
Cc1cc(/C=N/NC(N)=S)c(C)n1-c1cccc(Cl)c1	73*	·	i	-0.2	8	10	2.5	·	-4	15
CCOC(=O)C1=C(C)N(c2ccc(C)c(C)c2)C(=O)/C1=C\c1ccco1	38	0.67	·	-0.4	·	·	·	5.4	0	·
COc1cccc2c1cc1c(=O)n(CC(=O)NCCCN3CCCCC3)nc(C)n12	-16	0.64	·	0.2	·	·	·	-364	-11	·
CCOc1ncccc1C(=O)NNC(=O)c1csc(N2CCOCC2)n1	8	0.7	i	-1.5	4	-1	-1.7	1.4	-2	-0.8
Cc1ccccc1C(=O)NC(CC(C)C)C(=O)NN1C(=O)c2ccccc2C1=O (centres undefined)	5	0.7	·	0.6	9	14	1.4	0.4	-17	0.8
COC(=O)CCCNC(=O)CC1C(=O)NCCN1Cc1ccoc1 (centres undefined)	-3	0.7	i	0.0	4	3	-2.4	-6.2	1	3.5

Not all compounds are listed; the hit share may differ from the screen's.
